TRPML1 blocker = inhibitors of human TRPML1 channel. Q9GZU1. 390,000 tested, 0.02% active. activity change, negative = inhibition, % (no concentration beside the values). TRPML1-inducible cells, Ca2+ dye fluorescence, FDSS; active compounds read low; inhibition of EC80 agonist-evoked calcium signal. AID 624415; in the data active means activity change below about -50%; inconclusive means about -30% to -50%; inactive means above about -30%;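 note: stimulus is agonist 54-4 at its EC80 concentration; % is set by controls: 0 for no effect and ±100 for the full control effect; compound concentration not given in the record; the text of the record puts the active cut at -80%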
Target sequence (Q9GZU1 whole entry, looked up): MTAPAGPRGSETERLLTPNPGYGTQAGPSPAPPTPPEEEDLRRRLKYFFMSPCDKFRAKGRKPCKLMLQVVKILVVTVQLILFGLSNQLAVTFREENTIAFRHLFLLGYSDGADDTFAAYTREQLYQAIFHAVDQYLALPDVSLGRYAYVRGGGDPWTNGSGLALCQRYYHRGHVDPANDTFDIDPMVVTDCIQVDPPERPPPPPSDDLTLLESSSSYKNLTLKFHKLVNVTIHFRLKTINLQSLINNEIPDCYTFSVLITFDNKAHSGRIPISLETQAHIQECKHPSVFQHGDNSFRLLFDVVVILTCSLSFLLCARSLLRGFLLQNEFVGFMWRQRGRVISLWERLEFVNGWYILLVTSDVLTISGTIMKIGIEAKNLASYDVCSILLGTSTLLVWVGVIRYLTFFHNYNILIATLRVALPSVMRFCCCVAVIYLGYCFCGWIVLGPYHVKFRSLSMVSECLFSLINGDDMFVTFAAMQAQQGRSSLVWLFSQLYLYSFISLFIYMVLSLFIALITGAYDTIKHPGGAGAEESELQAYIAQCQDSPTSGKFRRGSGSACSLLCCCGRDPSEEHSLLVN
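Tet-induced TRPML1-DL cells loaded with Ca8 no-wash calcium dye were read kinetically on FDSS. Compound addition was followed by EC80 agonist 54-4 (4 uM final); inhibition was read over 110 s.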
D2 PAM = potentiates the human D2 dopamine receptor allosterically | P14416 | DiscoveRx D2 beta-arrestin cells, luminescence, 90 min; 100% = 57 uM dopamine signal | potentiation, % (concentration not given with the values) | 360,000 tested, 0.23% active | AID 624464; active = potentiation of 50% or more; inconclusive = 30% to 50%; inactive = 30% or less;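 note: compound concentration not given in the record; tested on top of an EC20 dose of dopamine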
Target sequence (P14416 whole entry, looked up): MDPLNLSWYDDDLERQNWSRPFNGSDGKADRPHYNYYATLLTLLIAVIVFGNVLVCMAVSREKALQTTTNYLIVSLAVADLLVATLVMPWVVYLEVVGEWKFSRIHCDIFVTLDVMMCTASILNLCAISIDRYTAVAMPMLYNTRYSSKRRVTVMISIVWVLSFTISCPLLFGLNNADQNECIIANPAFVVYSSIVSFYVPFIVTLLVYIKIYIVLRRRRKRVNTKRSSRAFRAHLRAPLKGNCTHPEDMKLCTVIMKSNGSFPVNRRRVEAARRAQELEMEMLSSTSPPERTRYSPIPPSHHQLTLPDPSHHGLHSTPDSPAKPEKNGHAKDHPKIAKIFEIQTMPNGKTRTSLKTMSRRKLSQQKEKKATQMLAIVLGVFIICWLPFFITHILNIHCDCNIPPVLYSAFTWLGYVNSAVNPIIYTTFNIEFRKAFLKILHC
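PathHunter beta-arrestin assay in DiscoveRx D2 cells. Compounds were added with an EC20 of dopamine (50 nM final) for 90 min at 37 deg C. Luminescence was read 1 h after detection reagent, with 57 uM dopamine as the EC100 control.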
Six1-Eya2 blk = Six1/Eya2 interaction inhibition | 360,000 tested, 0.56% active | AlphaScreen GST-Six1/His-Eya2 binding, biochemical; active compounds read low; control for the full effect not named in the record | activity change, % (test concentration not listed) | Q15475+O00167; in the data active = activity change below about -65%; inconclusive = about -30% to -65%; inactive = above about -30%; note: % is set by controls: 0 for no effect and ±100 for the full control effect
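Homogeneous AlphaScreen proximity assay pairing GST-Six1 with His-tagged Eya2 (added as 5X mix: 250 nM and 500 nM) in 50 mM Tris pH 8.0, 300 mM NaCl, 1 mM TCEP. Glutathione donor and nickel acceptor beads; 1 h, 37 °C, dark.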
TRPML1 ag = activates the human TRPML1 channel. TRPML1-expressing cells, Ca2+ dye fluorescence, FDSS; host cell line not named in the record; reference of the full effect not given here. activation, % (no concentration beside the values). 410,000 tested, 0.12% active; in the data active = activation above about 50%; inconclusive = about 30% to 50%; inactive = below about 30%; note: 0% is about no effect; the text of the record puts the active cut at 80%
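Tetracycline-induced TRPML1-DL cells are seeded and incubated overnight before loading with a no-wash Ca2+ dye and quencher. Agonist activity is taken from the 110 s fluorescence read following compound pin-transfer on an FDSS, before EC80 54-4 challenge.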
PINK1 expr mod = modulators of PINK1 expression; PINK1 immunofluorescence, high-content cytometry, 24 h; Potency, µM (titrated, usually from 76.6 µM), for inactives: at the highest dose activation (PINK1 increase), usual class: activators; 410,000 tested, 0.2% active; AID 624263; active = well fitted activation curve with a large enough effect; inconclusive = small, poorly fitted or top-dose-only effect; inactive = flat fitted curve, though single readings scatter; cell line not stated here;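 note: potency is the fitted concentration of half-maximal effect; % of control where 0% means no effect; nearly all actives have a fitted effect of over 65% in size; a mitochondrial uncoupler was the plate control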
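Stable cell line, 250 cells/well, 12 h attachment; compounds pinned at 5 concentrations, 24 h; CCCP control. Fixed with nuclear dye, primary antibodies 12 h at 10 degrees C, secondary plus cell stain; laser-scanning cytometer read.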
D2 agonist = activates the human D2 dopamine receptor. P14416. DiscoveRx PathHunter D2 beta-arrestin, luminescence, 90 min; 100% = 57 uM dopamine signal. activation, % (no concentration beside the values). 360,000 tested, 0.084% active. AID 624465; in the data active = activation above about 40%; inconclusive = about 15% to 40%; inactive = below about 15%; note: compound concentration not given in the record; the text of the record calls up to 30% inactive
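DiscoveRx PathHunter D2 beta-arrestin cells (2,100/well) attached overnight, then compound-stimulated 90 min at 37 C in HBSS/10 mM HEPES/0.1% Tween-20 buffer; beta-galactosidase complementation read by luminescence after 1 h at ambient temperature. Dopamine 57 uM final (EC100) as control.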
* marks the source's active call; other numbers are inactive results; ? = inconclusive; / = not tested or not shown; [ ] = another dose, or the depositor's remark.

SMILES | TRPML1 blocker | D2 PAM | Six1-Eya2 blk | TRPML1 ag | PINK1 expr mod | D2 agonist
O=C(CCCOc1ccc(Cl)cc1Cl)Nc1ccccc1C(=O)O | -6 | 13 | -10 | 1.1 | 1.9% | 2.3
COc1ccc(NC(=O)CC2C(=O)N(c3cccc(OC)c3)C(=O)N2C(C)C)cc1 (stereo not given) | -8 | -4 | 0 | -0.2 | -0.4% | -1.7
NS(=O)(=O)c1ccc(NC(=O)CSc2ncccn2)cc1 | -6 | -3 | 3 | -0.7 | -1.1% | -0.6
COc1ccc(CCNC(=O)c2cc3c(=O)n(C)c4ccccc4c3s2)cc1OC | 13 | / | / | -0.1 | 2.5% | /
COCCN1Cc2cccc(C(=O)NCC3CCN(CC(C)C)C3)c2C1=O (stereo not given) | 4 | -6 | -5 | -0.6 | 2.2% | 2.8
COc1cc(C(=O)NCc2nnc(SCC(=O)Nc3c(C)cc(C)cc3C)o2)cc(OC)c1OC | -3 | -10 | -5 | -0.5 | -1.1% | -3.8
CCC12OC(=N)C(C#N)(C1C)C(C#N)(C#N)C(c1ccccc1)O2 (stereo not given) | 12 | 14 | 2 | 1.4 | -0.6% | -0.8
CCn1cnc2c1c(=O)n(CC(=O)NCc1ccccc1)c(=O)n2Cc1ccccc1 | 6 | -6 | -4 | -1.0 | 0.9% | -2.2
CCN(CC)C(=O)C1CCN(Cc2ccc(OCc3ccccc3)c(OC)c2)CC1 | -9 | -3 | 1 | 0.2 | 1.0% | -7.4
COc1cccc(OC)c1C(=O)N1CCN(S(=O)(=O)c2ccc(C)cc2)CC1 | -13 | -1 | 8 | -0.5 | -0.8% | -0.2
COc1ccc(NC(=O)CSc2nncn3c2cc2occc23)c(OC)c1 | -21 | / | / | -0.2 | 1.3% | /
CCC12CN3CC(C)(CN(C1)C3c1c(C)n(C)c3ccccc13)C2=O (stereo not given) | 39 | / | / | 0.2 | 0.2% | /
COCCn1c(SCC(=O)N2CCCCCC2)nnc1-c1ccco1 | 23 | -6 | 11 | 0.1 | -1.5% | -4.8
CCOc1cc(/C=C2\C(=N)N3N=C(C)SC3=NC2=O)ccc1OCCOc1cccc(OC)c1 | 7 | -2 | 0 | 2.5 | 15% | -1.9
CCc1nnc(NC(=O)C2=NN(C3CCS(=O)(=O)C3)C(=O)CC2)s1 (stereo not given) | 14 | -5 | 13 | -0.2 | 2.3% | -3.6
CC1(C)Cc2c(cnn2-c2cccc(F)c2)C(NC(=O)c2csnn2)C1 (stereo not given) | -9 | -3 | -7 | 0.6 | 1.1% | -2.1
Cc1cc(NC(=O)CN2CCN(c3ccccc3O)CC2)no1 | 42 | -17 | 1 | -0.4 | 1.0%[38.3 µM] | -2.1
Cc1cccc(OCC(=O)NNc2c3ccccc3nc3ccccc23)c1 | 8 | -8 | -28 | 0.0 | 19%[38.3 µM] | 0.0
CN(C)C(=O)COc1ccc(S(=O)(=O)c2ccc(OCC(=O)N(C)C)cc2)cc1 | -2 | -1 | 6 | 0.0 | 1.2% | -0.4
COc1ccc(-c2cc(C(=O)N(C)CC(=O)Nc3cccc(F)c3)c3ccccc3n2)cc1 | -12 | -8 | 4 | -0.5 | -2.5% | -3.2
COCCNC(=O)C1Cc2c(-c3cccc(NC(C)=O)c3)ccnc2O1 (stereo not given) | -12 | -8 | 2 | 1.1 | 4.1% | -4.4
Cc1ccc(-n2nc3c(=O)n(CCCC(=O)N4CCCCC4)nc(C)c3c2C)cc1 | -17 | 1 | -3 | -0.8 | -1.3% | -2.4
COc1cccc(O)c1CN1CCCC(C(=O)c2cccc(C(F)(F)F)c2)C1 (stereo not given) | -4 | -14 | -6 | 1.1 | ? | -1.2
CCc1ccc(-n2c(SC(CC)C(=O)N(CC)CC)nc3n[nH]c(C)c3c2=N)cc1 (stereo not given) | -12 | / | / | 2.0 | -0.2% | /
CC(=O)C(Sc1nc(-c2ccccc2Cl)nc2c1c(=O)n(C)c(=O)n2C)C(=O)N(C)C (stereo not given) | 15 | / | / | -0.9 | 1.6% | /
(next part)
SMILES | TRPML1 blocker | D2 PAM | Six1-Eya2 blk | TRPML1 ag | PINK1 expr mod | D2 agonist
O=C(O)c1cccc(-n2c(-c3cnccn3)n[nH]c2=S)c1 | 5 | -7 | 4 | -0.3 | -0.5% | 0.6
COc1ccc(C2NC(=O)NC3=C2C(=O)CCC3)cc1 (stereo not given) | / | 1 | -1 | / | -0.1% | -0.1
Cc1cccc(NC(=S)N2CCC(N(C)CC3CCCO3)CC2)c1C (stereo not given) | 1 | -4 | -3 | -0.2 | -2.3%[38.3 µM] | -2.0
COc1ccc(-n2ncc3c2CC(C)(C)CC3NC(=O)CCN2CCCC2=O)cc1 (stereo not given) | -4 | -3 | 6 | -0.4 | 1.1% | -1.7
Cc1ccc(C2(C(F)(F)F)NC(=O)N3CCCN=C3S2)cc1 (stereo not given) | -4 | -7 | -2 | -0.1 | -4.5%[38.3 µM] | -2.6
O=c1ccc(Cl)nn1-c1ccccc1 | 12 | 11 | 6 | -0.2 | 4.8% | 1.9
N#Cc1c(-c2ccccc2)cc(-c2ccccc2)nc1SCC(=O)Nc1ccc(Cl)cc1 | -11 | / | / | 1.2 | -0.3% | /
CC(C)(C)NCc1ccc(OCc2cccs2)cc1 | -8 | -2 | 0 | -0.4 | -0.1% | 1.5
COc1ccc(CCNC(=O)c2cc(S(=O)(=O)N3CCCC(C)C3)cn2C)cc1OC (stereo not given) | -8 | / | / | 1.3 | 0.1% | /
Oc1ccccc1C=NCCN=Cc1ccccc1O | / | -13 | -22 | / | 2.3% | -1.1
Cn1nc(C(=O)OCC(=O)Nc2ccccc2OC(F)F)c2ccccc2c1=O | -9 | -1 | 0 | -0.6 | 10% | 14
Cc1ccc(CC2(OCCN(C)C)CCC(C(C)(C)C)CC2)cc1 (stereo not given) | 18 | -28 | -6 | 0.8 | -7.2% | -6.8
O=C(Cn1ccn(-c2ccc(F)c(F)c2)c(=O)c1=O)Nc1ccccc1F | 2 | / | / | 0.7 | 4.0% | /
COc1ccc(CNC(=O)CSc2nc3ccc(C)cc3[nH]2)cc1 | 1 | 0 | 0 | 0.5 | 0.4% | 1.6
CSc1ccccc1C(=O)Nc1cc(C)cc(C)c1 | 7 | -10 | 8 | 0.3 | 0.4% | 0.6
COc1ccccc1/C=C/C(=O)Nc1cccc(S(=O)(=O)N2CCOCC2)c1 | -20 | 10 | -15 | 1.4 | 1.2% | 2.5
Cc1ccc(C)c(S(=O)(=O)c2c[nH]c(=S)[nH]c2=O)c1 | -6 | -11 | 12 | 0.5 | 1.0% | -1.0
COc1ccc(N2C(=O)CC(c3ccccc3)CC2=O)cc1 | -6 | -5 | 1 | -0.2 | -0.6% | -1.6
CCN(c1ccccc1)S(=O)(=O)c1ccc(OC)c(NC(=O)C2CC2)c1 | 32 | -2 | -1 | 2.3 | -0.6% | 1.0
c1ccc(-c2ccc(CN3C[C@@H]4C(c5ccccc5)C5(c6ccccc6)CC4(C5)[C@H]3c3ccccc3)cc2)cc1 (stereo not given in full) | 8 | -5 | 0 | 1.0 | 0.4% | -4.3
CC(=O)Nc1ccc(S(=O)(=O)NC2C3(C)CCC(C3)C2(C)C)cc1 (stereo not given) | 34 | -3 | 2 | 0.8 | 2.1% | 0.5
COC(=O)NNC(=O)c1ccccc1OC | / | 2 | 1 | / | -0.3% | -6.1
O=C(Nc1cccc2ccccc12)NC1CCS(=O)(=O)C1 (stereo not given) | -10 | -4 | -1 | 0.9 | 1.4% | -6.2
CCOc1ccc(S(=O)(=O)Nc2cc(OC)c(OC)cc2C(=O)O)cc1 | 1 | -1 | 0 | 1.9 | -0.3% | -2.2
COc1ccc(-n2nc(C(=O)NCC(=O)N(C)Cc3ccccc3)c3ccccc3c2=O)c(OC)c1 | 4 | -4 | 7 | -0.1 | 1.7% | 0.6

In a second layout: entries from further up
canonical_smiles	TRPML1 blocker	D2 PAM	Six1-Eya2 blk	TRPML1 ag	PINK1 expr mod	D2 agonist
COc1ccccc1/C=C/C(=O)Nc1cccc(S(=O)(=O)N2CCOCC2)c1	-20	10	-15	1.4	1.2%	2.5
CCN(c1ccccc1)S(=O)(=O)c1ccc(OC)c(NC(=O)C2CC2)c1	32	-2	-1	2.3	-0.6%	1.0
O=C(Cn1ccn(-c2ccc(F)c(F)c2)c(=O)c1=O)Nc1ccccc1F	2	/	/	0.7	4.0%	/

Additional compounds follow.
SMILES | TRPML1 blocker | D2 PAM | Six1-Eya2 blk | TRPML1 ag | PINK1 expr mod | D2 agonist
Cn1c(CSCc2ccc(Cl)cc2)nnc1SCC(=O)Nc1nc2ccccc2s1 | -4 | 1 | 6 | -0.3 | 19%[38.3 µM] | -2.5
COc1cccc(-c2cc3nc(-c4ccccc4)cc(=O)n3[nH]2)c1 | 3 | -24 | -10 | 0.3 | 4.6% | -0.9
Cc1noc(C)c1COc1ncnc2ccccc12 | -13 | 0 | 8 | 0.8 | -0.6% | -0.5
COc1ccccc1NC(=O)c1sc2nc(C)c(C(=O)Nc3ccc(C)cc3C)c(-c3ccc(C)o3)c2c1N | 6 | / | / | 0.9 | 0.4% | /
COc1ccc(NS(=O)(=O)c2ccc(C)c(NC(=O)C3CCCO3)c2)cc1 (stereo not given) | -7 | 5 | 9 | 0.7 | -1.1% | -2.0
COC(=O)C1=C(C)NC(=O)NC1c1cccc(OC)c1OCc1ccccc1 (stereo not given) | 18 | -9 | -3 | 0.4 | -2.3% | -0.8
c1ccc(Cn2nnc(-c3ccccc3)n2)cc1 | 18 | -7 | 16 | -0.3 | 1.2% | -2.8
CC1Cc2ccccc2N1C(=O)COc1nc2ccccc2nc1N1CCOCC1 (stereo not given) | 5 | -16 | 8 | -1.6 | 2.4% | ?
CCOC(=O)c1cccc(NC(=O)c2ccc(F)cc2F)c1 | 8 | -22 | 9 | -1.2 | 1.1% | 0.1
COc1ccc(S(=O)(=O)NCc2ccc(C(=O)NCCCN3CC(C)CC(C)C3)cc2)cc1 (stereo not given) | 39 | -28 | -4 | 0.3 | -0.8% | -8.6
Cc1cccc(-n2ncc3c(NC4CCCC4)ncnc32)c1 | 3 | / | / | 0.3 | 5.2% | /
CCCCOC(=O)Nc1ccc(S(=O)(=O)Nc2nccs2)cc1 | -13 | -1 | -2 | 0.6 | -2.9% | -2.7
CCc1cc(=O)oc2cc(C)cc(OCC(=O)N[C@@H](CSCc3ccccc3)C(=O)O)c12 | / | -37 | -10 | / | 0.7% | -8.2
Cc1cc(C)n2nc(C(=O)Nc3ccc(S(=O)(=O)N4CCCC4)cc3)nc2n1 | -23 | 2 | -1 | 0.6 | 2.6% | 0.2

Record cards (already shown). Screens in order: TRPML1 blocker | D2 PAM | Six1-Eya2 blk | TRPML1 ag | PINK1 expr mod | D2 agonist
COc1cccc(O)c1CN1CCCC(C(=O)c2cccc(C(F)(F)F)c2)C1 (stereo not given) reads -4 | -14 | -6 | 1.1 | ? | -1.2
COC(=O)C1=C(C)NC(=O)NC1c1cccc(OC)c1OCc1ccccc1 (stereo not given) reads 18 | -9 | -3 | 0.4 | -2.3% | -0.8
CC1(C)Cc2c(cnn2-c2cccc(F)c2)C(NC(=O)c2csnn2)C1 (stereo not given) reads -9 | -3 | -7 | 0.6 | 1.1% | -2.1

Screening results from PubChem.
